Sfp PPTase inh: qHTS Assay for Inhibitors of Bacillus subtilis Sfp phosphopantetheinyl transferase (PPTase); AID 1490, 2009; 310,000 compounds, 3.5% hits; Potency, µM, for inactives: max response, negative = inhibition, actives largely listed as inhibitors; Biochemical Sfp PPTase activity, qHTS; active = well fitted inhibition curve with a large enough effect; inconclusive = small, poorly fitted or top-dose-only effect, or another doubt; inactive = no such curve, though single readings can be large or run the other way;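 also: the enzyme is Sfp with the accession as filed and its product quenches rhodamine fluorescence; potency is read from the fitted curve at half-maximal effect; 0% = enzyme reaction without inhibitor and -100% = no enzyme wells; top concentration of the series not given in the record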
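Buffer: 50 mM Hepes-Na pH 7.6, 10 mM MgCl2, 0.01% Nonidet P-40, 0.01% BSA. Enzyme 15 nM, pre-exposed to compound 15 min; substrates then added and fluorescence change tracked over 30 min.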
gsp agonist: qHTS for Agonist of gsp, the Etiologic Mutation Responsible for Fibrous Dysplasia/McCune-Albright Syndrome: qHTS. gsp mutant cells, cAMP HTRF, 30 min; control for the full effect not named in the record. Potency, µM (series often up to 76.9 µM), without a hit: at the top dose activation (cAMP increase), hits mostly activators. 340,000 compounds, 0.13% hits. AID 624287, 2012; active = well fitted activation curve with a large enough effect; inconclusive = small, poorly fitted or top-dose-only effect, or another doubt; inactive = no such curve, though single readings can be large or run the other way; cell line not stated here;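 also: phosphodiesterase inhibitor Ro 20-1724 added with compounds to block cAMP breakdown; potency is read from the fitted curve at half-maximal effect; nearly all actives have a fitted effect of over 60% in size; about a fifth of the inactives were tested at one dose only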
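Cells stably selected in G418 were plated at 2000/well, grown 16-24 hr, then given compounds in DMSO with the PDE inhibitor […] (300 uM solution added) for 30 min at 37C; cAMP was read by HTRF.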
TRPV1 potentiator: HTS Assay for Compounds that Act as Potentiators of the Vanilloid Receptor 1. Transient receptor potential cation channel subfamily V member 1 (Homo sapiens), Q8NER1. TRPV1-expressing cells, Fluo-8 calcium influx, capsaicin EC20 potentiation; host cell line not named in the record; control for the full effect not named in the record. potentiation, % at 8.33 µM. 320,000 compounds, 0.02% hits; active means potentiation above 80%; inconclusive means 30% to 80%; inactive means below 30%; also: 0% is about no effect
Target sequence (Q8NER1 whole entry, looked up): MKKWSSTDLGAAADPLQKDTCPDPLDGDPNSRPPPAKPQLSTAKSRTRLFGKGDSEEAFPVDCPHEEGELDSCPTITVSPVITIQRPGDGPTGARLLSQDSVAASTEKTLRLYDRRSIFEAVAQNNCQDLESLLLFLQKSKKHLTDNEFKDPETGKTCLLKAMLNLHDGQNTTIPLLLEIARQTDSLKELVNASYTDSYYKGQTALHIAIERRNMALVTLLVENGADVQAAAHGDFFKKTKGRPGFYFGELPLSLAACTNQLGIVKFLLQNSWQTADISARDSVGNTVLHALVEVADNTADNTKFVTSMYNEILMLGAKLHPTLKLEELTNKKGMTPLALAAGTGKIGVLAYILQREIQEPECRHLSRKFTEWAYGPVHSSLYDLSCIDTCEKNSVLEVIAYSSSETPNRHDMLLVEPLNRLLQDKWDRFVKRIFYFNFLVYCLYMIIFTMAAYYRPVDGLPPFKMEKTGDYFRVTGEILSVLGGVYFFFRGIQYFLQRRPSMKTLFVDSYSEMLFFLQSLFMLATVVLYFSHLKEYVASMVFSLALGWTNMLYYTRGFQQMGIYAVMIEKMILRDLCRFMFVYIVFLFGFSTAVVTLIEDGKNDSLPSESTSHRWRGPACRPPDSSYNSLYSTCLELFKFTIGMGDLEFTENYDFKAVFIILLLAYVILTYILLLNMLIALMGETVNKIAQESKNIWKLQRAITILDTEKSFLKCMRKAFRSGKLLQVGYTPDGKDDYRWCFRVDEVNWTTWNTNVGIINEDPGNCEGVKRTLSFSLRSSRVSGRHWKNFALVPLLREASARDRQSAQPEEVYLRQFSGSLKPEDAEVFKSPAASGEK
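Cells expressing TRPV1 were dye-loaded with Fluo-8 and read kinetically: 10 s baseline, 3 min after compound (agonist portion), then 2 min after EC20 capsaicin (allosteric enhancer portion). Calcium-bound dye fluorescence at 480/520 nm.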
CtBP-E1A inh: qHTS Assay for Inhibitors of the CtBP/E1A Interaction. 340,000 compounds, 0.49% hits. activity change, % (test concentration not listed). AlphaScreen GST-E1A/His-CtBP binding, 1536-well; hits give low values; control for the full effect not named in the record. AID 651724, 2012; in the data active means activity change below about -65%; inconclusive means about -30% to -65%; inactive means above about -30%; also: % is scaled to controls: 0 for no effect and ±100 for the full control effect
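Protein mix (5X: 125 nM each GST-E1A, His-CtBP) was incubated with pinned compound 2 h at 37 deg C in dark, in 50 mM Tris pH 8.0 buffer with 300 mM NaCl. Glutathione donor and nickel acceptor beads followed; AlphaScreen signal read after 1 h.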
Menin MLL FP FL: qHTS Assay for Inhibitors Targeting the Menin-MLL Interaction in MLL Related Leukemias: Competition With Fluorescein Labeled MLL-derived Peptide; Fluorescence polarization, fluorescein-MLL peptide displacement from menin; FP activity change, % at 61.4 µM; 290,000 tested, under 10 active; inconclusive = falling polarisation curve, or a change in total fluorescence; inactive = total fluorescence flat and polarisation flat or rising; no compound was filed as active; the % refers to the polarisation; negative = inhibition;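 also: % of control where 0% means no effect; inhibitors lower the polarisation; unlabelled MLL peptide was the positive control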
gsp antagonist: qHTS for Antagonists of gsp, the Etiologic Mutation Responsible for Fibrous Dysplasia/McCune-Albright Syndrome: qHTS; gsp-mutant cells, cAMP HTRF, 30 min; control for the full effect not named in the record; Potency, µM (top dose mostly 76.9 µM), for the others: at the top dose activity change, negative = inhibition, usual class: inhibitors; 340,000 compounds, 0.4% hits; AID 624288, 2012; active = falling curve of any shape with a large fitted effect; inconclusive = falling curve, mostly with a smaller effect; inactive = flat or rising curve; cell line not stated here;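 also: intracellular cAMP measured with PDE inhibitor Ro 20-1724 present during compound exposure; potency is read from the fitted curve at half-maximal effect; % is scaled to controls: 0 for no effect and ±100 for the full control effect; nearly all actives have a fitted effect of over 65% in size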
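Cells in G418 medium, seeded 16-24 h, 37C; buffer exchange to DPBS + 1 mM CaCl2, 0.5 mM MgCl2, 0.05% BSA; cpds in DMSO + […] (300 uM stock), 30 min 37C; HTRF cAMP detection.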
ClpP mod: qHTS Assay for Activators of ClpP | ATP-dependent Clp protease proteolytic subunit (Bacillus subtilis (strain 168)), P80244 | purified B. subtilis ClpP, FRET peptide cleavage, 20 min | Potency, µM (top dose mostly 57.5 µM), for the others: top-dose activity change, negative = active | 340,000 compounds, 1.9% hits | AID 651965, 2013; active = well fitted falling curve with a large enough effect; inconclusive = small, poorly fitted or top-dose-only effect; inactive = no such curve, though single readings can be large or run the other way; also: potency is read from the fitted curve at half-maximal effect; the source files actives as falling curves though it sought activators and does not explain the sign; nearly all actives have a fitted effect of over 65% in size; many hits overshoot -100%
Target sequence (P80244 whole entry, looked up): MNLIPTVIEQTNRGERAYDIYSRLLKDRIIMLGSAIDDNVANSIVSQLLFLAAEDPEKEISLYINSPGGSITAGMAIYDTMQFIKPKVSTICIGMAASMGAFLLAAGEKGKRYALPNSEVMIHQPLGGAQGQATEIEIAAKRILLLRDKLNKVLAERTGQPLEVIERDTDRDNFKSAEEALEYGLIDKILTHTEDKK
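Purified B. subtilis ClpP, 10 microg/mL final in Tris/HCl pH8 with KCl, BSA, glycerol and Tween-20, cleaved an Abz/nitrotyrosine-quenched decapeptide. Fluorescence (ex 320, em 430) was read at 0 and 20 min at room temperature. Delta was normalized to 5.8 microM ADEP and DMSO/no-enzyme controls.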
* marks the source's active call; other numbers are inactive results; ? = inconclusive; nt = no result given; [ ] = remark or other dose.

SMILES	Sfp PPTase inh	gsp agonist	TRPV1 potentiator	CtBP-E1A inh	Menin MLL FP FL	gsp antagonist	ClpP mod
Cn1nc(-c2ccc(Cl)cc2)c2cc(C(=O)N3CCOCC3)sc21	4%	-18%	-19	-13	4.8	-8%	-9.8%
Cc1ccc(S(=O)(=O)N2CCCCC2C(=O)N2CCN(Cc3ccccc3)CC2)cc1 (stereo not given)	-3%	-17%	-2	-6	0.4	-13%	1.1%
COc1ccc(NC(=S)N(CCc2c(C)[nH]c3ccc(C)cc23)Cc2ccco2)cc1	19%	6%	-4	-23	3.0	-13%	-5.2%
O=C(c1ccc(NC(=O)C(c2ccccc2)c2ccccc2)cc1)c1ccc(C(=O)O)c(C(=O)O)c1	2%	-7%[15.4 µM]	-2	8	6.3	-2%	0.5%
Cc1ccc(N2C(=O)NC(NS(=O)(=O)c3ccccc3)(C(F)(F)F)C2=O)cc1 (stereo not given)	1%	16%	2	6	2.8	4%	nt
COc1ccc(Cn2c(=N)c(C(=O)NC3CCCCC3)cc3c(=O)n4ccccc4nc32)cc1	-22%	-26%	-16	11	nt	0%	-3.5%
Cc1cc(C)cc(C(=O)NCCC(=O)N2CCC3(CC2)NCCc2[nH]cnc23)c1	4%	27%	16	0	nt	-23%	-0.6%
O=C(CN(c1ccc(Cl)c(C(F)(F)F)c1)S(=O)(=O)c1ccccc1)N1CCOCC1	1%	5%	-22	-12	8.2	0%[15.4 µM]	-0.3%
CSc1nc(N)c(NC(=O)c2ccc(Br)o2)c(=O)[nH]1	18%	0%[15.4 µM]	-13	5	nt	-9%	-1.7%
Cc1ccc(Cl)cc1N1CCN(C(=O)Cc2cn(C)c3ccccc23)CC1	-12%	-16%	-17	-17	6.5	-15%	-2.6%
CCN(CC)S(=O)(=O)c1cccc(C(=O)Nc2ccc(S(=O)(=O)NC3=NCCCCC3)cc2)c1	nt	-8%[15.4 µM]	4	-20	nt	0%	1.0%
O=C(COC(=O)/C=C/c1ccc2ccccc2n1)NNC(=O)c1ccc([N+](=O)[O-])cc1	nt	9%	5	-7	nt	?	-2.5%
Cc1ccc(N(C)C(=O)N2CCN(S(=O)(=O)c3ccc4ccccc4c3)CC2)cc1	-14%	-31%[inhibitor]	-4	-11	0.8	-30%	-2.6%
O=C(Nc1ccc(S(=O)(=O)NCCc2ccccc2)cc1)c1ccco1	8%	-29%	-7	-4	2.0	-3%	1.5%
Cc1ccc(OC(=O)c2cc(C)nn2C(C)(C)C)cc1	-4%	-12%	nt	nt	-1.1	6%	0.7%
COc1cccc(/C=C/C(=O)OCC(=O)c2ccc(C)c(C)c2)c1OC	nt	-44%[inhibitor]	18	-20	nt	3%	4.1%
Cc1nc2n(n1)C(c1ccccc1)C1=C(CC(c3ccco3)CC1=O)N2 (stereo not given)	-15%	1%	1	13	-3.4	6%	?
NC(=O)CSc1oc(-c2ccco2)nc1S(=O)(=O)c1ccc(F)cc1	-3%	24%[15.4 µM]	-4	13	-4.6	-19%	-0.8%
CC(Sc1nnc(CNc2cccc3ccccc23)n1-c1ccccc1)C(=O)N/N=C/c1ccco1 (stereo not given)	15%	0%	22	-3	6.0	-4%	-13%
O=C(NC(=S)Nc1cccc2[nH]ncc12)c1ccccc1	-19%	26%	4	-22	-3.0	-13%	0.6%
N=C(c1cccc([N+](=O)[O-])c1)N1CCCCCC1	16%	-3%	9	nt	-5.1	6%	1.0%
Clc1ccc(-c2cnn3c(-c4ccncc4)ccnc23)cc1	17%	-116%[inhibitor]	3	nt	-0.8	3%	0.2%
CN(C)c1nc(Oc2ccc(=O)n(-c3ccccc3)n2)nc(N2CCOCC2)n1	12%	-14%	-1	3	3.8	8%	1.2%
CCN(CC(=O)Nc1c(F)cccc1F)C(=O)c1ccc(S(=O)(=O)N2CCCCCC2)cc1	nt	?	1	0	nt	3%	0.4%
[O-][n+]1ccccc1SC/C=C/c1ccccc1	6%	-1%[15.4 µM]	-4	2	0.7	13%	nt
CC1CCN(CCCNC(=O)c2ccc3c(=O)n(Cc4ccc(Cl)cc4)c(=S)[nH]c3c2)CC1	79µM*	-4%[15.4 µM]	-2	3	-0.2	14%	-0.5%
CC1(c2nnc(Cc3ccccc3)o2)CC(c2ccc(F)cc2)=NO1 (stereo not given)	nt	nt	nt	8	nt	7%	-1.5%
CCCOC(=O)CC1C(=O)NCCN1Cc1ccccc1C (stereo not given)	nt	?	nt	7	nt	9%	-1.1%
COc1ccc(C)cc1NC(=O)c1cnc2sccn2c1=O	24%	nt	-3	nt	-0.1	nt	nt
O=c1oc2ccccc2c(Nc2ccc(F)cc2)c1[N+](=O)[O-]	14%	-26%	?	nt	1.4	?	1.6%

Compound profiles, from the list above. Screens in order: Sfp PPTase inh | gsp agonist | TRPV1 potentiator | CtBP-E1A inh | Menin MLL FP FL | gsp antagonist | ClpP mod
`Clc1ccc(-c2cnn3c(-c4ccncc4)ccnc23)cc1` as listed: 17% | -116%[inhibitor] | 3 | nt | -0.8 | 3% | 0.2%
`CCN(CC)S(=O)(=O)c1cccc(C(=O)Nc2ccc(S(=O)(=O)NC3=NCCCCC3)cc2)c1` as listed: nt | -8%[15.4 µM] | 4 | -20 | nt | 0% | 1.0%

Next section
SMILES	Sfp PPTase inh	gsp agonist	TRPV1 potentiator	CtBP-E1A inh	Menin MLL FP FL	gsp antagonist	ClpP mod
COc1cc(NC(=O)c2cc(C)no2)c(OC)cc1Cl	11%	17%	18	3	-6.5	0%	?
Cc1ccc(C)c(Oc2nnnn2-c2ccccc2)c1	-1%	9%	17	22	3.5	7%	-0.7%
Clc1cccc(Cl)c1-c1noc(CN2CCOCC2)n1	12%	-36%[inhibitor]	nt	nt	2.9	-7%	0.0%
CCCS(=O)(=O)n1nc(-c2ccc(Br)cc2)cc1N	-1%	-30%	3	1	0.1	-4%	0.6%
Cc1ccc(SCCNS(=O)(=O)c2ccc(F)cc2)cc1	10%	-5%	-10	8	2.2	5%	-0.4%
N/C(=N\OS(=O)(=O)c1ccc(Cl)cc1)c1cccnc1	-3%	-11%	1	-3	2.1	13%	-0.2%
Cc1ccc(-n2cc(CNC(C)Cn3cncn3)c(-c3ccc(F)cc3)n2)cc1 (stereo not given)	-18%	-24%[15.4 µM]	2	6	0.4	-14%	0.8%
CC(Oc1ccc(F)cc1)C(=O)Nc1cc(S(=O)(=O)N2CCOCC2)ccc1N1CCCCC1 (stereo not given)	nt	-1%[15.4 µM]	-10	-3	nt	-14%	nt
CC1(c2cnc(Nc3ccccc3)s2)CCC(=O)O1 (stereo not given)	0%	-8%	30	-2	0.3	1%	1.7%
Cc1ccc(N2CCN(/N=C/C(Cl)=C/c3ccccc3)CC2)cc1	11%	?	2	-2	-4.3	7%	nt
O=C(CNC(=O)C1CC(=O)N(c2cccc3ccccc23)C1)Nc1ccccc1Br (stereo not given)	nt	8%	4	2	nt	-2%	-0.6%
CC/C(=C\C(=O)c1ccncc1)Nc1ccc(O)cc1	?	-19%	-8	-13	0.0	-14%	-5.2%
CC(=O)N(C)c1ccc(NC(=O)Cc2cccs2)cc1	4%	-12%[15.4 µM]	-7	6	0.5	11%	?
COc1ccc(NC(=O)C2=CC(c3ccc(OC)c(OC)c3)=NS(=O)(=O)N2C)cc1	8%	0%	19	-19	7.7	40µM*	-0.3%
Cc1ccc(O)c(N=Cc2ccc(C)s2)c1	56µM*	11%	-4	-1	8.9	9%	-7.2%

Four of the entries above in order of their number in gsp agonist, ascending.
structure | Sfp PPTase inh | gsp agonist | CtBP-E1A inh | Menin MLL FP FL
COc1ccc(Cn2c(=N)c(C(=O)NC3CCCCC3)cc3c(=O)n4ccccc4nc32)cc1 | -22% | -26% | 11 | nt
Cc1ccc(Cl)cc1N1CCN(C(=O)Cc2cn(C)c3ccccc23)CC1 | -12% | -16% | -17 | 6.5
CN(C)c1nc(Oc2ccc(=O)n(-c3ccccc3)n2)nc(N2CCOCC2)n1 | 12% | -14% | 3 | 3.8
N=C(c1cccc([N+](=O)[O-])c1)N1CCCCCC1 | 16% | -3% | nt | -5.1

The results go on.
SMILES	Sfp PPTase inh	gsp agonist	TRPV1 potentiator	CtBP-E1A inh	Menin MLL FP FL	gsp antagonist	ClpP mod
c1ccc(-c2cnn3c(-c4ccccc4)c(-c4ccccc4)nc3n2)cc1	2%	8%	-3	1	?	9%	-0.4%
O=C(NCCN1CCOCC1)c1ccc(Cl)c(S(=O)(=O)N2CCCCCC2)c1	-10%	-32%[inhibitor]	-6	-6	1.4	5%	0.5%
COc1ccc(/C=C2\SC(N3CCc4ccccc4C3)=NC2=O)cc1OC	-6%	-52%[inhibitor]	-9	-14	-0.1	29%	-8.5%
Cc1noc(C)c1COc1ccc(C(=O)N(C)CCOc2ccccc2)cc1	nt	-1%	5	4	nt	-7%	-0.7%
COc1ccc(Nc2nc(CN3CCOCC3)nc3sc4c(c23)CCC(C)C4)cc1OC (stereo not given)	9%	nt	-12	nt	-1.8	nt	nt
O=C(c1ccccc1)C(CCC(CN1CCOCC1)C(=O)c1ccccc1)CN1CCOCC1 (stereo not given)	-19%	13%	-11	1	0.7	12%[15.4 µM]	-3.2%
CC(C)(C)n1nnnc1C(c1ccc2ncccc2c1)N1CCC(O)CC1 (stereo not given)	9%	-5%[15.4 µM]	22	4	-2.5	-1%	0.1%
Nc1cc(C(F)(F)F)cc2c1SCC(=O)N2	2%	1%	2	38	6.6	27%	1.6%

Screening data deposited in PubChem by National Center for Advancing Translational Sciences (NCATS).
